# CFTR F508del: total CFTR protein upregulators, primary screen, cell-based, HeLa F508del-CFTR, immunofluorescence, viability (AID 1224863). HeLa F508del-CFTR, immunofluorescence total CFTR, 24 h; by the record results were divided by relative cell number; some inactives read as strong as hits. calls, or highest fold increase where a dose series was run. Cystic fibrosis transmembrane conductance regulator (Homo sapiens). hit rate 0.1% among 10,000; in the data nearly all actives have a first-pass fold increase above 1.5; a few of its hits are not listed in these tables;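 also: total CFTR protein by anti-CFTR immunofluorescence in fixed cells; first pass at 25 µM or 10 µg/mL by library and series up to twice that; 1 = untreated cells; first-pass hits also needed half or more of the cells alive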
# CFTR F508del fold 25 µM: second read-out of CFTR F508del, no call of its own (marks repeat the call); fold increase; measured here: primary screen single dose 25 uM; library dosed in µM
# CFTR F508del viability 25 µM: further read-out of CFTR F508del, marked with its call; viability, %; measured here: primary viability 25 uM; library dosed in µM;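 0% = killed and 100% = untreated cells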
# * hit, by the source's call; i = inactive; & = joins results of further samples. Some of the compounds tested (hit frequency here may not be typical).
No. | compound | CFTR F508del | CFTR F508del viability 25 µM | CFTR F508del fold 25 µM
1 | CCCC[C@@H](CC)COC(=O)c1ccccc1O | i | 108.0 | 1.12
2 | Nc1c2ccccc2nc2ccccc12 (tested in a mixture with another compound) | i | 61.0 | 0.87
3 | COc1ccc(CN2CCN(C(c3ccc(F)cc3)c3ccc(F)cc3)CC2)c(OC)c1OC | i | 96.0&86.0 | 0.89&0.92
4 | NC(N)=NC(=O)Cc1c(Cl)cccc1Cl | i | 112.0&84.0 | 1.11&1
5 | CCC[C@H](N[C@@H](C)C(=O)N1[C@H](C(=O)O)C[C@@H]2CCCC[C@@H]21)C(=O)O | i | 86.0 | 1.09
6 | CCCCCCCC/C=C\CCCCCCCC(=O)O | i | 93.0 | 1.1
7 | NC(=NCc1ccccc1)NC(=O)c1nc(Cl)c(N)nc1N | i | 86.0 | 0.95
8 | O=C(Nc1ccc(C(=O)O)c(O)c1)c1ccccc1 | i | 103.0 | 0.95
9 | Cc1cccc(C)c1NC(=O)C1CCCCN1C (configuration not stated) | i | 99.0 | 1.18
10 | CCCCCCc1ccc(O)cc1O | i | 79.0 | 1.01
11 | CCCCC1C(=O)N(c2ccccc2)N(c2ccccc2)C1=O | i | 101.0&105.0&89.0 | 0.99&1.01&1.09
12 | C#C[C@]1(O)CCC2C3CCC4=CC(=O)CC[C@@H]4C3CC[C@@]21CC (some centres not stated) | i | 73.0 | 0.91
13 | C=C1c2cccc(O)c2C(O)=C2C(=O)[C@]3(O)C(O)=C(C(N)=O)C(=O)[C@@H](N(C)C)[C@@H]3[C@@H](O)[C@H]12 | i | 70.0&88.0 | 0.98&0.96
14 | COc1ccccc1OCCNCC(O)COc1cccc2[nH]c3ccccc3c12 (configuration not stated) | i | 81.0&81.0&76.0 | 0.97&1.03&0.93
15 | N#Cc1ccc2[nH]cc(CCCCN3CCN(c4ccc5oc(C(N)=O)cc5c4)CC3)c2c1 | i | 88.0 | 1.01
16 | CC(=O)Nc1ccc(O)cc1 | i | 94.0&96.0 | 1&0.99
17 | CC(=O)Nc1ccccc1 | i | 90.0 | 0.96
18 | CC(=O)Nc1ncc([N+](=O)[O-])s1 | i | 89.0 | 1.15
19 | Nc1c2c(nc3ccccc13)CCCC2O (configuration not stated) | i | 101.0 | 1.05
20 | COc1cc([C@H]2Oc3cc([C@H]4Oc5cc(O)cc(O)c5C(=O)[C@@H]4O)ccc3O[C@@H]2CO)ccc1O | i | 91.0 | 0.85
21 | Cc1cc(C)cc(OCC2CNC(=O)O2)c1 (configuration not stated) | i | 90.0 | 1.05
22 | CCn1cc(C(=O)O)c(=O)c2cc(F)c(N3CCNCC3)nc21 | i | 91.0&87.0 | 1.12&1.09
23 | Nc1ncnc2nc[nH]c12 | i | 81.0 | 0.96
24 | CC(C)(CO)C(O)C(=O)NCCCO (configuration not stated) | i | 101.0 | 1.12
25 | CC(C)(C)CC(=O)OCC(=O)[C@@]1(O)CCC2C3CCC4=CC(=O)C=C[C@]4(C)C3[C@@H](O)C[C@@]21C (some centres not stated) | i | 81.0 | 1.05
26 | COc1c(O)cc2c(c1O)[C@H]1O[C@H](CO)[C@@H](O)[C@H](O)[C@@H]1OC2=O | i | 109.0 | 1.03
27 | CCOC(=O)NNc1nncc2ccccc12 | i | 87.0 | 1.02
28 | CCCCOc1ccc(CC(=O)NO)cc1 | i | 88.0 | 0.99
29 | CCc1c2c(nc3ccc(OC(=O)N4CCC(N5CCCCC5)CC4)cc13)-c1cc3c(c(=O)n1C2)COC(=O)[C@]3(O)CC | i | 97.0&90.0&87.0 | 0.92&1.09&1.22
30 | OCc1ccccn1 | i | 106.0 | 1.03
31 | CCCCCC(=O)O[C@]1(C(C)=O)CCC2C3CCC4=CC(=O)CC[C@]4(C)C3CC[C@@]21C (some centres not stated) | i | 82.0 | 0.86

# Arranged by SMILES length (lowest first): 13 of the compounds above.
No. | compound | CFTR F508del | CFTR F508del viability 25 µM | CFTR F508del fold 25 µM
30 | OCc1ccccn1 | i | 106.0 | 1.03
23 | Nc1ncnc2nc[nH]c12 | i | 81.0 | 0.96
2 | Nc1c2ccccc2nc2ccccc12 (tested in a mixture with another compound) | i | 61.0 | 0.87
28 | CCCCOc1ccc(CC(=O)NO)cc1 | i | 88.0 | 0.99
27 | CCOC(=O)NNc1nncc2ccccc12 | i | 87.0 | 1.02
6 | CCCCCCCC/C=C\CCCCCCCC(=O)O | i | 93.0 | 1.1
4 | NC(N)=NC(=O)Cc1c(Cl)cccc1Cl | i | 112.0&84.0 | 1.11&1
7 | NC(=NCc1ccccc1)NC(=O)c1nc(Cl)c(N)nc1N | i | 86.0 | 0.95
22 | CCn1cc(C(=O)O)c(=O)c2cc(F)c(N3CCNCC3)nc21 | i | 91.0&87.0 | 1.12&1.09
3 | COc1ccc(CN2CCN(C(c3ccc(F)cc3)c3ccc(F)cc3)CC2)c(OC)c1OC | i | 96.0&86.0 | 0.89&0.92
15 | N#Cc1ccc2[nH]cc(CCCCN3CCN(c4ccc5oc(C(N)=O)cc5c4)CC3)c2c1 | i | 88.0 | 1.01
26 | COc1c(O)cc2c(c1O)[C@H]1O[C@H](CO)[C@@H](O)[C@H](O)[C@@H]1OC2=O | i | 109.0 | 1.03
13 | C=C1c2cccc(O)c2C(O)=C2C(=O)[C@]3(O)C(O)=C(C(N)=O)C(=O)[C@@H](N(C)C)[C@@H]3[C@@H](O)[C@H]12 | i | 70.0&88.0 | 0.98&0.96

# Three compounds from above, arranged by count of non-hydrogen atoms, rising.
No. | compound | CFTR F508del | CFTR F508del viability 25 µM | CFTR F508del fold 25 µM
12 | C#C[C@]1(O)CCC2C3CCC4=CC(=O)CC[C@@H]4C3CC[C@@]21CC (some centres not stated) | i | 73.0 | 0.91
14 | COc1ccccc1OCCNCC(O)COc1cccc2[nH]c3ccccc3c12 (configuration not stated) | i | 81.0&81.0&76.0 | 0.97&1.03&0.93
29 | CCc1c2c(nc3ccc(OC(=O)N4CCC(N5CCCCC5)CC4)cc13)-c1cc3c(c(=O)n1C2)COC(=O)[C@]3(O)CC | i | 97.0&90.0&87.0 | 0.92&1.09&1.22

# Assay outcomes: PubChem, Southern Research Institute
